Bead autofluor – compound fluorescence in toxin protease inhibitor counterscreen. compound autofluorescence counterscreen, microsphere flow cytometry; stronger effect = higher value. fluorescence intensity (test concentration not listed). actives 3.1% (n = 360,000);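 active = at least 3 SD above the mean of all compounds, about 16000 in these data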;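 note: 100 nL of 1 mM stock went into each well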
Starred values were filed as active, the others as inactive. An excerpt (hit frequency here may not be typical).

SMILES	Bead autofluor
CC(=O)Nc1cc(-c2ccc(N)cc2)cn2c(-c3cccc(C(F)(F)F)c3)cnc12	4551
Nc1ccn([C@@H]2O[C@H](CNCc3cc(Cl)ccc3OCc3ccc(Cl)cc3)[C@@H](O)[C@H]2O)c(=O)n1	2897
Cc1cccc(C)c1NC(=O)c1csc([C@H]2C[C@H](O)[C@@H](CO)O2)n1	3878
CCc1nc2c(OCCn3cccc3)cccn2c1N(C)C(=O)C1CC1	3237
COc1ccc(NC(=O)C2(C)CCCN(C(C)C)C2)cc1OC (stereo unspecified)	2669
COc1cc(C(O)c2nc(-c3ccc4ccccc4c3)cs2)ccc1F (stereo unspecified)	3778
O=C(COC(=O)c1ccccc1)NCCCCc1ccccc1	3870
COc1cccc(C(=O)Nc2ccc3nc4n(c(=O)c3c2)CCCCC4)c1	3195
COC(=O)c1c(N)[nH]c(C(=O)c2ccccc2)c1-c1ccc(Br)cc1	6345
O=C(OCc1cn([C@H]2CN(Cc3cccs3)[C@@H](c3ccc(Cl)cc3)C[C@@H]2O)nn1)c1ccccc1	2873
COc1ccccc1N1CCN(CC(=O)NC(=O)NCc2ccccc2)CC1	3914
Cc1ccccc1-c1n[nH]nc1C1=CC(=O)CC(C)(C)C1	3861
CCOC(=O)c1cccc(C2=C(CNC(=O)c3ocnc3C)[C@H]3CC[C@@H](C2)N3Cc2ccccc2)c1	3426
CCN1C(=O)[C@H]2[C@@H](c3ccc(C)cc3)N[C@]3(CCCN(Cc4ccco4)C3=O)[C@H]2C1=O	3795
Cc1nc2c(OCc3cccc(Cl)c3)cccn2c1N(C)Cc1cccs1	3099

4 entries from above, ordered by molar mass, smallest number first:
SMILES	Bead autofluor
Cc1cccc(C)c1NC(=O)c1csc([C@H]2C[C@H](O)[C@@H](CO)O2)n1	3878
COc1cc(C(O)c2nc(-c3ccc4ccccc4c3)cs2)ccc1F (stereo unspecified)	3778
CCN1C(=O)[C@H]2[C@@H](c3ccc(C)cc3)N[C@]3(CCCN(Cc4ccco4)C3=O)[C@H]2C1=O	3795
Nc1ccn([C@@H]2O[C@H](CNCc3cc(Cl)ccc3OCc3ccc(Cl)cc3)[C@@H](O)[C@H]2O)c(=O)n1	2897

Carrying on:
SMILES	Bead autofluor
CCc1nc2c(OCc3ccc(F)cc3)cccn2c1N(C)C(=O)C(C)C	3622
CCOC1=C2[C@@H](CN(S(=O)(=O)c3ccccc3)[C@H]2c2ccccc2)[C@H]2C(=O)N(c3ccccc3)C(=O)[C@H]2C1	6182
C[C@@H]1CN([C@@H](C)CO)C(=O)CCCn2nncc2CO[C@@H]1CN(C)C(=O)c1ccccc1	3832
CC(=O)NC(c1cccc(F)c1)c1nc(-c2ccccc2C)cs1 (stereo unspecified)	3674
O=C(Cn1ccc(=O)[nH]c1=O)c1ccc([N+](=O)[O-])o1	3066
O=C(NCCCN1CCOCC1)c1cc(S(=O)(=O)N2CCCCC2)ccc1Cl	4155
Cc1ccccc1S(=O)(=O)N(C)C[C@@H]1OCc2cnnn2CCCC(=O)N([C@@H](C)CO)C[C@H]1C	3649
CC(C)C(=O)N1CCCC1(C)C(=O)Nc1ccc(F)cc1 (stereo unspecified)	2928
Cc1cccc(NC(=O)c2sc3nc(C)nc(N4CCOCC4)c3c2C)c1	3634
CCc1nc2ccc(C(=O)NCc3cccs3)cn2c1N(CC)CCOC	3807
CC(C)C[C@@H]1COc2cccc(N3CCSCC3)c2S(=O)(=O)N1	6052
CC1CN(C(=O)c2cccc(NS(=O)(=O)c3ccc(Br)cc3)c2)CC(C)O1 (stereo unspecified)	3943
CC1(Cc2ccc(F)cc2)C(=O)Nc2c(Cl)cccc21 (stereo unspecified)	2954
COC(=O)N(C)C[C@@H]1OCc2cn(nn2)CCCC(=O)N([C@@H](C)CO)C[C@H]1C	3701
CN(C)c1ccc(-c2csc(C(O)(c3ccccc3)C(F)(F)F)n2)cc1 (stereo unspecified)	3503
COc1cccc(CNc2nc(NCC3CC3)nc3ccsc23)c1	2964
COC(=O)N(C)C[C@@H]1OCc2cnnn2CCCC(=O)N([C@H](C)CO)C[C@H]1C	3549
CC1(Oc2ccccc2-c2ccno2)CCN(Cc2ccc(-c3ccccc3)o2)C1 (stereo unspecified)	3969
CCCCOc1ccc(S(=O)(=O)NC(=O)C2(C)CCN2C(=O)CCc2ccccc2)cc1 (stereo unspecified)	2877
O=C(O)c1ccc(NC2=C/C(=N/S(=O)(=O)c3cccs3)c3ccccc3C2=O)cc1	3589
CC(C)=C(C)c1cc2nc(NCCCN(C)C)n(C)c(=O)c2s1	3659
COc1ccc(CC(=O)Nc2cc(F)ccc2F)cc1S(=O)(=O)N1CCOCC1	2861
CCc1nc2c(OCc3c(C)noc3C)cccn2c1N(C)C(=O)C(C)C	3723
COc1cccc(-c2cc3nc(-c4ccccc4)cc(N4CCN(C(=O)c5ccoc5)CC4)n3n2)c1	3349
CC(=O)Nc1ccc(-c2ccnc3c2CC(C(=O)NCc2cccc(Cl)c2)O3)cc1 (stereo unspecified)	3137
Cc1ccc(CNc2ncnc3ccc(-c4ccoc4C)cc23)o1	2957
Nc1nc2ncccc2cc1C(=O)NCCc1cccs1	6228
Cc1ccc(C=C2SC(=S)N(CCCC(=O)Nc3cccc(C(=O)O)c3)C2=O)cc1	5427
CCOC(=O)C1=CCN(S(=O)(=O)c2ccccc2F)C1c1ccc(F)cc1 (stereo unspecified)	6153
COc1ccc(C)cc1NC(=O)COC(=O)Cc1c[nH]c2ccccc12	3574
COc1ccccc1-c1csc(C(O)c2ccc(F)cc2)n1 (stereo unspecified)	3885
CCCCn1nnnc1C(c1ccccc1)N1CCN(CCN2CCOCC2)CC1 (stereo unspecified)	5868
O=C(O)c1ccccc1-c1ccc([N+](=O)[O-])cc1Cl	2944
Cc1ccc(F)cc1C(=O)N1CCCC(c2cc(C(=O)Nc3ccccc3Cl)no2)C1 (stereo unspecified)	3812
CCN(CC)C(=O)C1=C(C)N(Cc2ccc(C(C)(C)C)cc2)C(=O)C(CC(=O)NCCc2ccccn2)C1 (stereo unspecified)	3747
CS(=O)(=O)Nc1ccc2c(c1)[C@@H]1C[C@@H](CC(=O)NCc3cccnc3)O[C@H](CO)[C@@H]1O2	2767
COc1ccc([C@H]2C[C@H](n3cc(-c4ccc(F)cc4)nn3)[C@@H](O)CN2C(=O)C2CCCCC2)cc1	4538
CC(=O)Nc1cc(-c2cccc(F)c2)cn2c(-c3ccc(F)cc3)cnc12	3953
CC(=O)NCCNc1nc2cc(-c3ccc(Cl)cc3C)sc2c(=O)n1C	3705
O=C(c1ccc(F)cc1)N1CCC(C(=O)N2CCCc3ccccc32)CC1	3941
NC(Cc1ccc(C(F)(F)F)cc1)c1csc(Nc2ccc(C(=O)NCc3ccco3)cn2)n1 (stereo unspecified)	2858
Cc1[nH]c(=O)[nH]c(=O)c1NC(=O)c1ccccc1[N+](=O)[O-]	3824
O=C(NCc1cccc(C(F)(F)F)c1)c1ccc2sc([C@@H]3O[C@H](CO)[C@@H](O)[C@H]3O)nc2c1	4495
C[C@H](CO)N1C[C@H](C)[C@H](CN(C)C(=O)Nc2ccc3c(c2)OCO3)Oc2ncc(Br)cc2C1=O	3882
O=Nc1c(O)cc(O)c2ccccc12	4052
OC(c1cccc(CN2CCCCC2)c1)c1ncc(-c2cccc(C(F)(F)F)c2)[nH]1 (stereo unspecified)	3684
Cc1cc(C(=O)N2CCC2(C)C(=O)NCC(C)(C)C)nn1C (stereo unspecified)	3861
O=c1ccc2ccccc2c2ccccc12	4647
O=C(Nc1oc2ccccc2c(=O)c1-c1ccc2c(c1)OCO2)c1ccco1	2852
Cc1cc(C)cc(Cn2c(C)c(C(=O)N(C)Cc3ccc(F)cc3)sc2=O)c1	4082
COc1ccc(NC(=O)c2cc(C3CCCCN3C(=O)OCC(C)C)on2)c(C)c1 (stereo unspecified)	4074
CN(c1cc2c(c3c1ccn3C)C1CCC2C1)C1CCCCC1 (stereo unspecified)	6009
CCc1nc2c(OCCn3cccc3)cccn2c1N(C)C(=O)CC(C)C	3040
CCOC(=O)C1(C)CCCN(C(=O)COc2ccccc2)C1 (stereo unspecified)	3680
C=CCNc1n[nH]c(=S)s1	3665
O=C(Nc1ccccc1SC(=O)c1ccccc1)c1ccccc1	4042
CCOC(=O)C1=C(Nc2ccc(OC)cc2)C(N)=NC1=N	4102
O=C1CCCN1C1CCN(Cc2ccccc2)S(=O)(=O)N1 (stereo unspecified)	4251
COc1ccc2cc(C#CC3=CC(=O)C[C@H](c4ccc(F)cc4)C3)ccc2c1	3708
COc1cccc(C(C)(O)c2nc(-c3cccc(C(F)(F)F)c3)cs2)c1 (stereo unspecified)	2953

Entries shown so far that have a furan ring, fused or not, in the order listed:
SMILES	Bead autofluor
CCN1C(=O)[C@H]2[C@@H](c3ccc(C)cc3)N[C@]3(CCCN(Cc4ccco4)C3=O)[C@H]2C1=O	3795
O=C(Cn1ccc(=O)[nH]c1=O)c1ccc([N+](=O)[O-])o1	3066
CC1(Oc2ccccc2-c2ccno2)CCN(Cc2ccc(-c3ccccc3)o2)C1 (stereo unspecified)	3969
COc1cccc(-c2cc3nc(-c4ccccc4)cc(N4CCN(C(=O)c5ccoc5)CC4)n3n2)c1	3349
Cc1ccc(CNc2ncnc3ccc(-c4ccoc4C)cc23)o1	2957
NC(Cc1ccc(C(F)(F)F)cc1)c1csc(Nc2ccc(C(=O)NCc3ccco3)cn2)n1 (stereo unspecified)	2858
O=C(Nc1oc2ccccc2c(=O)c1-c1ccc2c(c1)OCO2)c1ccco1	2852

New compounds follow
SMILES	Bead autofluor
CC1(Oc2ccc(Cl)cc2)CCN(Cc2ccc(-c3ccccn3)cc2)C1 (stereo unspecified)	2743
CN(C)CCCNc1nc2cc(-c3cccc(C(F)(F)F)c3)sc2c(=O)n1C	3068
C=CCN1Cc2ccccc2-n2nncc2C1	4593
NC(c1csc(Nc2ncccn2)n1)C1CCCCC1 (stereo unspecified)	2880
Cc1ccc(Cc2c(-c3ccc(Br)cc3)nc3ccc(Cl)cn23)cc1	5657
Cc1cccc(C(O)c2ncc(-c3ccccc3F)[nH]2)c1C (stereo unspecified)	2973
Cc1cccc(C)c1N1C(=O)CC(Sc2ccccc2N)C1=O (stereo unspecified)	3917
O=C(OC1CC2CC1[C@H]1CCCCN1C2=O)N1CCCCC1 (stereo partly specified)	5468
c1nnc(NCNc2nncs2)s1	3754
O=C(C[C@H]1C[C@H]2c3cc(NS(=O)(=O)c4ccc(F)cc4)ccc3O[C@H]2[C@H](CO)O1)NCc1ccncc1	3774
CC1C(=O)N(Cc2cn(CCC3OCCCO3)nn2)CCS(=O)(=O)N1Cc1ccc(-c2ccc(F)cc2)cc1 (stereo unspecified)	3985
Cn1c(Oc2cccnc2CN2CCCC2)nc2cc(-c3cccc(C(F)(F)F)c3)sc2c1=O	3760
CCOC(=O)[C@]12CCC=C1N(Cc1cccc3ccccc13)C(=O)[C@H](CC(=O)N1CCN(C(=O)C3CC3)CC1)C2	6463
COCCCNc1ccn2nc(-c3cccc(OCc4ccccc4)c3)cc2n1	3754
CC1=C(C(=O)N(C)C)CC(CC(=O)NCCc2ccccn2)C(=O)N1Cc1ccc(C(C)(C)C)cc1 (stereo unspecified)	3013
CC1(C(=O)NS(=O)(=O)Cc2ccccc2)CCN1C(=O)C1(c2ccc(Cl)cc2)CCC1 (stereo unspecified)	3453
CN(C)Cc1ccccc1CNC(=O)c1cccc(S(=O)(=O)Nc2ccc3c(c2)OCO3)c1	2585
CC(=O)N(O)c1ccc(C=Cc2ccccc2)cc1	4353
CC1(C(=O)NS(=O)(=O)c2ccc(Cl)s2)CCN1C(=O)C1CCCCC1 (stereo unspecified)	3566
COc1cc(-c2cnc3c(NC=O)cc(-c4cccc(C(=O)NCCN(C)C)c4)cn23)cc(OC)c1OC	3048
COc1ccc(-n2c(C)c3c(C)nnc(C)c3c2C)cc1OC	3121
COc1ccc(C(=O)NCC(=O)NCc2ccc3c(c2)OCO3)cc1[N+](=O)[O-]	3377
CC(=O)N1CCOc2ccc(S(=O)(=O)NC[C@H]3O[C@@H](n4ccc(N)nc4=O)[C@H](O)[C@@H]3O)cc21	3780
CC1=C(C(=O)N2CCCCCC2)CC(CC(=O)NCc2cccs2)C(=O)N1Cc1ccccc1 (stereo unspecified)	6210
COc1ccc(-c2cc3c(c4c2ccn4C)C2CCC3O2)cn1 (stereo unspecified)	4444
COc1cc(OC)nc(C(NC(=O)C2CCN(Cc3c[nH]c4ccccc34)CC2)c2ccc(Cl)cc2)n1 (stereo unspecified)	3786
O=C(Nc1ccccc1)c1cc(C2COCCN2C(=O)C2CC2)on1 (stereo unspecified)	3970
Cc1ccc(NC(=O)C2(C)CCN2Cc2cccc3c2OCO3)cc1O (stereo unspecified)	3822
C[C@H](CO)N1C[C@H](C)[C@@H](CN(C)Cc2ccc(C(=O)O)cc2)Oc2ncc(Br)cc2C1=O	2923
CNC(=O)c1cc(Oc2ccc(NC(=O)c3[nH]c(-c4ccccc4)c4c3C(=O)N(C)C4=O)cc2)ccn1	5592

Next part, starting with the last 2 of the part before.
SMILES	Bead autofluor
C[C@H](CO)N1C[C@H](C)[C@@H](CN(C)Cc2ccc(C(=O)O)cc2)Oc2ncc(Br)cc2C1=O	2923
CNC(=O)c1cc(Oc2ccc(NC(=O)c3[nH]c(-c4ccccc4)c4c3C(=O)N(C)C4=O)cc2)ccn1	5592
CCCCn1nnnc1C1(C)CCC(=O)N1Cc1cccnc1 (stereo unspecified)	6165
CC(C)CN1CCC(C(=O)NC(c2ccc(F)cc2)c2ccc3ccccc3n2)CC1 (stereo unspecified)	6221
CC(C)c1ccc(NC(=O)Nc2nc(C(N)COCc3ccccc3)cs2)cc1 (stereo unspecified)	3747
Cc1ccc(S(=O)(=O)N2C[C@@H](C)[C@]3(C2)[C@H](O)[C@H](OC(=O)NCc2ccccc2)C[C@H]2C(=O)N(c4ccccc4)C(=O)[C@H]23)cc1	4272
N#CC1c2ccccc2-n2nncc2CN1C(=O)c1ccccc1F (stereo unspecified)	5527
CCCS(=O)(=O)NC(=O)C1(C)CCN(C(=O)c2ccc(C(=O)OC)cc2)C1 (stereo unspecified)	2976
CC1(C(=O)Nc2ccc3c(c2)OCCO3)CCN1C(=O)c1ccco1 (stereo unspecified)	4022
COc1ccc(-n2nnnc2C(CCSC)N2CCC3(CC2)C(=O)NCN3c2ccccc2)cc1 (stereo unspecified)	6147
CCCNC(=O)C1(C)CCN(C(=O)c2ccc3sccc3c2)C1 (stereo unspecified)	4194
